High-throughput results (PubChem)
Calb FLC: C. albicans growth inhibition with fluconazole, primary screen, CaCi-2 strain, Alamar Blue fluorescence | growth inhibition, % (concentration not given with the values) | C. albicans CaCi-2 (fluconazole-resistant clinical isolate) + fluconazole, 48 h | actives 0.57% (n = 300,000);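 active means most replicates above 75%; inconclusive means exactly half above 75%; inactive means most below 75%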;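 further: all wells also contain fluconazole at 8 µg/ml as a sub-toxic cotreatment; 0% = median of DMSO wells and 100% = median of geldanamycin control wells; wells of about 8 µL received 7.5 nL stock; the first replicate is given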
RanGTP-Impb inh: inhibitors of RanGTP-importin-beta interaction, primary screen, biochemical, FRET, CFP-Ran, YFP-importin-beta, homogeneous; Ran GTPase (GTP-bound) - importin-beta complex; cell-free CFP-Ran/YFP-importin-beta FRET ratio; inhibition, % (concentration not given with the values); actives 1.1% (n = 300,000); AID 2216, 2009;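 active means most replicates above 15%; inconclusive means exactly half above 15%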;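 further: 0% = DMSO wells and 100% = Ran loaded with GDP instead of GTP; wells of about 40 µL received 100 nL stock; the first replicate is given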
Beta cell apopt: inhibitors of cytokine-induced beta cell apoptosis, primary screen, luminescence; INS-1E cytokine-induced death, ATP luminescence, 48 h; percent of positive-control rescue, neutral wells zero; protection from apoptosis, % (no concentration beside the values); actives 0.8% (n = 300,000); AID 435005, 2010;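 active means all replicates at 75% or more, or half of them and the mean; inconclusive means half reach 75% but not the mean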;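 further: 0% = cytokine-treated negative control wells and 100% = positive control rescue; higher means more ATP so stronger rescue from cytokine killing; wells of about 40 µL received 100 nL stock; the first replicate is given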
AF4-AF9 inh: inhibitors of AF4 peptide binding to AF9, primary screen, biochemical, AlphaScreen, biotin-AF4 peptide, FLAG-AF9, single point. Protein AF-9 (Homo sapiens), P42568. inhibition, % at 10 µM. actives 0.47% (n = 350,000). AID 651704, 2012;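 active means every replicate reaching a set inhibition limit, whatever the replicate mean, cut at about 25% in these data; inconclusive means mean inhibition reaches that limit but some replicates miss it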;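 further: 0% = plate neutral control median and 100% = total signal loss; the record names both 10 and 1 µM as test concentration; the first replicate is given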
Target sequence (P42568 whole entry, looked up): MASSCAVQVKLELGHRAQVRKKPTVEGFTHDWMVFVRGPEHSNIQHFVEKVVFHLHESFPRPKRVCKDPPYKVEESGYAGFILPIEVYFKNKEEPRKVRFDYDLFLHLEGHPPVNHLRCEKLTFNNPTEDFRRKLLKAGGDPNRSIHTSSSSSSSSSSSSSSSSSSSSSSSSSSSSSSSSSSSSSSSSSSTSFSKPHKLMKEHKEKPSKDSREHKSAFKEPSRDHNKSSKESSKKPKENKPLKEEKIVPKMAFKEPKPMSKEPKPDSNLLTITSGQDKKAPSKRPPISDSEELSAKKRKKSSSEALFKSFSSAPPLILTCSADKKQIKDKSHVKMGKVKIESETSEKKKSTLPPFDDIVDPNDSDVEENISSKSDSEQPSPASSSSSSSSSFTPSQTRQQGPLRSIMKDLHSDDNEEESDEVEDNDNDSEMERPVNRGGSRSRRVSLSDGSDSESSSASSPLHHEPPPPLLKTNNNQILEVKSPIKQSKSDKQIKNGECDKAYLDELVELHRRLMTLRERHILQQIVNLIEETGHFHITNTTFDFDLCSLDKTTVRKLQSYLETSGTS
rRNA inh HTS: reduced GFP signal of wild-type E. coli, primary screen, bacterial rRNA inhibitor project, GFP/RFP fluorescence, OD600, single point. E. coli WT GFP vs humanized-ribosome RFP mutants, 24 h; hits give low values; DMSO median 0, no signal -100. GFP signal change (wild-type ribosome), % (test concentration not listed). actives 1.6% (n = 350,000). AID 720706, 2013;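 active means significant combined selectivity score with lowered wild-type GFP, culture density cut under 30%, mutant RFP and density less affected; inactive means any of these conditions unmet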; further: one replicate is shown; some compounds called inactive have numbers as strong as hits
T cruzi inh: inhibitors of intracellular T. cruzi growth, primary screen, luminescence, NIH3T3 host cells | T. cruzi beta-gal in NIH3T3, 90 h | inhibition, % (no concentration beside the values) | actives 1.4% (n = 300,000) | AID 1885, 2009;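 active means mean inhibition across valid replicates above about 55%, limit read from the data; inconclusive means mean below that limit but half or more replicates reach it; inactive means mean below it, under half of replicates reach it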;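 further: signal also drops with host cell toxicity which is not excluded here; 0% = plate median of DMSO wells and 100% = zero luminescence signal; higher percent means less beta-gal luminescence so fewer parasites; stock transfer was 50 nL into about 50 µL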
Vif A3G: inhibitors of Vif binding to APOBEC3G peptide, primary screen, biochemical, TR-FRET, GST-Vif 1-94, biotin-A3G peptide, dose response retest (AID 1117319). TR-FRET GST-Vif / biotin-A3G peptide binding; higher % means a stronger effect; test concentration not given here; strong numbers were not always called active. actives 0.57% (n = 260,000). inhibition, %, or IC50 in µM where a hit was titrated;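 active means above the screen mean plus three standard deviations and confirmed in dose response; inconclusive means results disagree or hit not tested in dose response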;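 further: Vif residues 1-94 fused to GST binding biotinylated APOBEC3G peptide 110-148; 0% = full assay without inhibitor and 100% = GST in place of GST-Vif; retest series ran down from 100 µM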
A1 inh: caspase 3/7 activation in MEF A1-2A-BIM cells, primary screen, A1 inhibitor project, cell-based, luminescence, HTS; AID 2462, 2010; Caspase-Glo 3/7 luminescence, 3 h; percent of clofoctol response, vehicle zero; actives 0.066% (n = 330,000); caspase activation, % (test concentration not listed);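 active means over half of replicate activation scores above 10%, or exactly half above 10 with the replicate mean above 10; inconclusive means replicate mean below 10 yet half the replicates above 10; inactive means over half of replicates below 10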;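 further: wells of about 30 µL received 50 nL stock; many hits fall short of the cut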
rRNA inh HTS OD600: also measured in rRNA inh HTS; calls as there; OD600 change, %; measured here: OD600 growth;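 optical density of the mix in the first replicate; 0 = DMSO median and -100 = no signal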
rRNA inh HTS RFP: also measured in rRNA inh HTS; calls as there; RFP signal change, %; measured here: RFP humanized mutant strains;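 first replicate; 0 = DMSO median and -100 = no signal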
Active calls of the source: *; ? = inconclusive; nt = no result given; & = joins results of further samples. Not all compounds are listed (hit frequency here may not be typical).

SMILES	AF4-AF9 inh	Beta cell apopt	rRNA inh HTS	RanGTP-Impb inh	rRNA inh HTS OD600	Calb FLC	A1 inh	Vif A3G	T cruzi inh	rRNA inh HTS RFP
FC(F)(F)c1cccc(Nc2ncnc3ccccc23)c1	nt	19	nt	-1.6	nt	0	0.1	3%	13	nt
CC(=O)NC(CC(=O)NCCc1ccccc1)c1ccccc1 (centres undefined)	-0.1	-1	14	-2.8	9	2	0.8	nt	-2	1.0
CCCCCCNCCn1cnc2c(N)ncnc21	nt	-4	nt	?	nt	-5	0.6	2%	-19	nt
CN(c1ccccc1)c1nc(N)c([N+](=O)[O-])c(NCCO)n1	2.0	0	3	2.4	-6	-7	0.3	-4%	0	0.4
COc1ccc(C(=O)N/C(=C\c2cn(C)c3ccccc23)C(=O)N2CCOCC2)cc1	-2.9	2	7	-0.5	2	6	0.5	nt	5	-3.3
CNc1nc(NCc2ccccc2)c2ccccc2n1	9.3	37	28	2.7	-24	-5	0.9	-5%	51	13
COc1cc(/C=C/C(=O)O)ccc1S(=O)(=O)N1CCCc2ccccc21	-1.1	-13	nt	-0.8	nt	5	0.8	nt	-17	nt
NS(=O)(=O)c1ccc(CNc2nc(-c3cccnc3)nc3ccccc23)cc1	2.7	2	1	-1.9	-18	12	0.2	nt	8	0.4
Cc1cccc(CSC2=NCCN2S(=O)(=O)c2ccc(F)cc2)c1	-1.6	1	-9	2.3	-15	7	1.3	-10%	6	-1.0
CCN(CC)c1nc(OCCNC(=O)Nc2ccccc2)nc(N(CC)CC)n1	nt	1	nt	2.6	nt	-6	1.5	8%	34	nt
COc1cc(/C=N/c2oc(-c3ccccc3)cc2C#N)ccc1O	nt	1	nt	0.2	nt	-25	0.2	1%	-6	nt
CCOC(=O)c1ccc2[nH]c3c(c2c1)CCCC3	8.3	0	-27	?	-23	-66	-0.1	nt	14	-4.5
CCCCC1=CC2=CC(=O)C(C)(OC(=O)CC)C(=O)C2=CO1 (centres undefined)	nt	-1	11	-17	28	4	-0.5	nt	2	11
CCOC(=O)c1c(NC(=O)COC(=O)Cc2n[nH]c(=O)c3ccccc23)sc(C(=O)N(C)C)c1C	-0.1	nt	2	-1.4	5	-7	0.7	-10%	-9	0.4
CC(=O)Nc1ccc(-c2csc(Nc3ccc(S(N)(=O)=O)cc3)n2)cc1	0.0	-6	-15	6.4	-18	37	-0.5	-2%	-16	-4.2
COc1ccc(NC(=O)NNC(=O)CCC(=O)Nc2ccccc2Cl)cc1	-0.1	-3	8	1.0	9	-4	0.9	?	-11	5.2
COc1ccc(Cl)cc1Nc1nc(-c2sc(NC(=O)c3ccccc3)nc2C)cs1	nt	6	nt	5.9	nt	-7	-11	20%	-11	nt
COc1ccc(OC)c(NC(=O)c2sc3ncnc(N4CCN(c5ccccn5)CC4)c3c2C)c1	nt	0	nt	0.5	nt	15	0.8	nt	8	nt
COc1ccc(C(=O)NC(=S)N2CCN(C)CC2)cc1Br	-0.2	-4	nt	3.7	nt	-9	0.7	19%	-9	nt
O=C(O)CCn1c(CO)nc2ccccc21	-1.1	-10	12	?	9	31	0.5	nt	-4	3.5
COc1ccc(OCCN2C(=O)c3cccc(N)c3C2=O)cc1	-1.9	-1	6	9.1	5	5	-3.0	nt	-10	0.6
COCC(C)n1c(C)cc(C(=O)CN2C(=O)NC(Cc3c[nH]c4ccccc34)C2=O)c1C (centres undefined)	nt	-5	nt	-0.1	nt	-12	0.0	-7%	-2	nt
O=C(NC(=S)Nc1ccc(S(=O)(=O)N2CCCCC2)cc1)c1ccc(Cl)cc1	nt	2	nt	-2.1	nt	-4	-0.9	7%	nt	nt
Cc1ccc(C)c(NC(=O)COC(=O)CCCN=C2NS(=O)(=O)c3ccccc32)c1	nt	-3	nt	?	nt	-6	-0.6	nt	-16	nt
O=C(c1cccc(Oc2c(Cl)cccc2[N+](=O)[O-])c1)N1CCCCC1	3.6	0	-20	-1.0	-24	4	-0.5	-13%	12	6.9
CC(C)(C)NC(=O)c1ccc2nccnc2c1	nt	-7	nt	2.4	nt	-3	0.0	-8%	-14	nt
NC(=O)c1nc(C(=O)N2CCCCC2)c2ccccc2n1	0.7	-2	5	nt	2	nt	-0.3	nt	nt	-2.9
COc1cccc(/C=C2/Oc3ccccc3N(CC(=O)NCC3CCCO3)C2=O)c1 (centres undefined)	nt	4	nt	-0.2	nt	-11	1.5	nt	7	nt
CC(C)c1ccc(NC(=O)CCCC(=O)NCCc2ccccc2)cc1	2.4	3	-1	-6.6	1	11	0.0	nt	3	0.5
COc1ccc(/C=C(/NC(=O)c2ccc(C)cc2)C(=O)N2CCCC2)cc1OC	-0.5	0	4	4.0	5	-4	0.8	nt	-4	-2.3
CN(Cc1ccccc1)C(=O)c1ccc(NC(=O)Cc2cccc(NC(=O)C3CCCN(C(=O)C4CCCC4)C3)c2)cc1 (centres undefined)	-10	6	5	nt	2	nt	-0.7	nt	nt	7.2
O=S(=O)(Cc1nnnn1-c1ccccc1)c1ccccc1	-7.5	-2	3	-2.6	-4	0	0.2	-11%	-8	-0.9
CCN(CC)CCCn1c2c(c(SCC(=O)Nc3cccc4ccccc34)nc1=O)CCC2	0.9	-12	8	5.0	8	-7	-1.1	-1%	13	0.1
CCCCN1C(=O)C(=O)N(CC(=O)c2ccc3c(c2)OCO3)C1=O	-3.9	-2	15	4.0	14	2	0.6	6%	-16	0.9
O=C(Nc1ccc2c(c1)OCO2)C1CCCN1C(=O)Nc1ccccc1F (centres undefined)	nt	-4	nt	2.0	nt	0	1.1	4%&1%	-18	nt
Cc1ccc(S(=O)(=O)N2CCN(C(=O)N(C)C)CC2)cc1	-1.8	-3	14	-2.5	17	-1	-0.2	?	-7	1.9
Cc1cc(C)cc(NC(=O)Nc2cccc(S(N)(=O)=O)c2)c1	-0.8	-5	-7	5.8	-17	0	0.3	16%	1	-6.0
CCC(=O)Nc1nc2ccc(NC(=O)c3cc(OC)c(OC)c(OC)c3)cc2s1	2.3	9	-36*	-3.8	18*	3	2.2	12%	-3	-0.9*
CN(C)CCCn1cnc2c(c1=N)C(c1ccccc1)c1ccc3ccccc3c1O2 (centres undefined)	18	98*	-53	-1.8	-80	9	1.2	-7%	31	-15
CCC1CCC(N2CCN(c3ccc([N+](=O)[O-])cc3)CC2)CC1 (centres undefined)	14	14	-11	1.2	-12	-3	1.5	nt	23	0.7
Cc1ccc(-c2nnc(SCC(=O)NC3CCCC3)n2C)cc1	1.6	-4	4	-0.4	7	-4	-0.4	-1%	-17	-1.6
Cc1ccc(OCc2nnc(NC(=O)OCC(C)C)s2)c(C)c1	nt	2	nt	-2.4	nt	-1	-0.7	-1%	3	nt
O=C(Nc1cccc2ccccc12)/C(Cl)=C/c1ccccc1	nt	16	nt	3.7	nt	3	-1.2	0%	7	nt
CC(OC(=O)Cn1c(C(F)(F)F)nc2ccccc21)C(N)=O (centres undefined)	nt	2	nt	2.6	nt	-12	0.7	0%	-4	nt
CCC(C)n1cnc2c(c1=O)c1nc3ccccc3nc1n2-c1ccc2c(c1)OCCO2 (centres undefined)	nt	-4	nt	9.8	nt	-10	1.1	99%	8	nt
O=C(CSc1nnc(CNC(=O)c2cccs2)o1)Nc1cccc(F)c1	-0.9	-4	17	1.4	15	0	2.1	1%	-19	2.4
COc1ccc(OCCSc2nnc3c(Cl)cc(Cl)cn23)cc1	nt	nt	nt	2.1	nt	0	1.0	nt	27	nt
N#CC1(Nc2cccc(Br)c2)C(=O)Nc2ccccc21 (centres undefined)	nt	-8	-5	?	-21	-6	0.1	nt	-15	-1.6
O=C(Nc1ccc(Br)cc1)c1ccc(CSC2=NCCS2)cc1	nt	10	1	-4.2	1	1	-0.1	-6%	14	-1.7
CC(=O)NCCc1ccc(C(=O)COC(=O)c2ccco2)cc1	-2.9	-2	4	nt	19	nt	-1.4	0%	nt	-1.2
COc1cc(N=c2oc3c(C)ncc(CO)c3cc2C(N)=O)cc(OC)c1OC	3.4	4	nt	-3.6	nt	-10	0.6	-3%	-8	nt
COc1ccccc1N1CCN(Cc2ccc(-c3ccccc3[N+](=O)[O-])o2)CC1	12	-7	66	6.7	-9	2	3.0	nt	-8	41
Cc1cc(Cl)cc2sc(NC(=O)c3ccco3)nc12	nt	3	nt	?	nt	1	-3.1	nt	-13	nt
NC(=S)Cc1nc2n(n1)Cc1ccccc1-2	nt	-8	nt	1.6	nt	-2	-0.5	2%	-17	nt
O=C(CSc1ccc(Cl)cc1)N1CCC(c2nc3ccccc3s2)CC1	nt	-2	nt	?	nt	24	1.0	-3%	23	nt
CCCCN(C1CCS(=O)(=O)C1)S(=O)(=O)c1ccc(OC)cc1 (centres undefined)	-2.6	-11	7	4.6	7	12	0.0	nt	-7	0.6
CCOC(=O)N1CCN(C(=O)c2ccc(S(=O)(=O)Nc3cccc(C(F)(F)F)c3)cc2)CC1	nt	15	nt	-0.9	nt	-3	0.0	-5%	28	nt
CCN1C(=O)/C(=C\C=C2/C=CC=CN2CC)SC1=S	nt	-2	nt	-6.3	nt	-4	0.5	5%	-9	nt
O=C1N=C(N2CCCCC2)S/C1=C\c1ccncc1	-3.6	-8	-1	5.6	-5	-2	1.1	-8%	0	1.4
CCO[C@@H]1OC(C(=O)NC2CC2)=C[C@H](c2ccc(C(F)(F)F)cc2)[C@H]1CCCO	-1.0&-3.7	0	-2	3.8	2	14	0.5	-2%	-3	-1.8

(more compounds)
SMILES	AF4-AF9 inh	Beta cell apopt	rRNA inh HTS	RanGTP-Impb inh	rRNA inh HTS OD600	Calb FLC	A1 inh	Vif A3G	T cruzi inh	rRNA inh HTS RFP
Cc1ccccc1-n1c(=O)c2ccccc2n(CC(=O)NCc2ccco2)c1=O	-26	-11	12	2.3	3	?	0.0	-5%	-2	3.9
O=C(CN1C(=O)NC2(CCCC2)C1=O)OCc1c(F)cccc1Cl	-1.4	-9	-5	?	0	-6	-0.4	-3%	-2	-3.6
COc1ccc(S(=O)(=O)N(C)CC(=O)NC2CC2)cc1OC	0.6	-4	21	0.3	13	1	-1.0	-1%	-14	1.5
O=C(O)c1ccc2nc(-c3ccco3)c(-c3ccco3)nc2c1	-6.9	nt	18	nt	10	0	nt	0%	10	2.3
CSc1ccc(C(=O)C2CCCN(S(=O)(=O)c3c(C)noc3C)C2)cc1 (centres undefined)	-1.3	-3	-2	0.0	-1	1	1.1	-31%	15	1.6
COCCN1CCn2c(nc3cc(NS(C)(=O)=O)ccc32)C1	-9.1	-7	7	-0.8	10	4	-0.1	2%	-11	-1.7
